PKD1 kinase inh: inhibitors of human PKD1 kinase; Q15139; PKD1 kinase fluorescence polarization assay; inhibition, %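 (about 10 µM by stock and volumes)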; 200,000 tested, 0.056% active; AID 797;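 active = inhibition of 50% or more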;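 note: controls were vehicle for no effect and a reference inhibitor for full effect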
HSV replic up: HSV replication enhancement. HSV replication augmentation in cells, fold increase. maximum fold increase. 220,000 tested, 0.005% active. AID 1956;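 active = peak rise of 1.5-fold or more in the series; tested in PC3 cells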;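 note: first round at 10 µM; read as green reporter fluorescence; hits show the peak of a series up to 25 µM; 1 = signal of infected wells without compound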
INS promoter inh: TRM-6 insulin promoter activity inhibition; TRM-6 cells (human fetal islet line), insulin promoter-eGFP reporter, imaging; reporter expression induced with tamoxifen; inhibition, % at 2 µM; 130,000 tested, 0.9% active; AID 1273;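 active = inhibition above the mean plus 3 SD, with well images judged a real hit on visual review, cut at about 60% in these data, passing the limit was not always enough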
GALR2 ag: activates the human galanin receptor 2; GALR2-expressing cells, agonist activation read-out; activation, %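 (tested at 5 µM)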; 140,000 tested, 0.48% active; AID 803;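 active = above mean plus 3 SD of all compounds, about 5% in these data, not always enough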;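 note: 0% = vehicle buffer wells and 100% = reference agonist at full effect; tested in CHO reporter cells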
Target sequence (O43603 whole entry, looked up): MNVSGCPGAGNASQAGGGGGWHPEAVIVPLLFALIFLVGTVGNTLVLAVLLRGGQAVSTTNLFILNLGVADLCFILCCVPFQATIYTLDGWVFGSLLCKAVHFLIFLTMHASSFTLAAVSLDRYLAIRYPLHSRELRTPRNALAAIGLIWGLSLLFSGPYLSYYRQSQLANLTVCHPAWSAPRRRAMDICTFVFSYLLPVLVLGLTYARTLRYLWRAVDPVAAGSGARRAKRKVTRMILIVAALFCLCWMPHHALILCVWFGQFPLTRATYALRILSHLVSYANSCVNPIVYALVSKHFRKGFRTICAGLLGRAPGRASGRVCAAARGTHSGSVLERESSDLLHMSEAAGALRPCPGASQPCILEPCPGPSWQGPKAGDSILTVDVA
RGS16-Gao HTS: regulators of human RGS16-Galphao interaction | binding response (% of control), % at 10 µM | O15492+P09471 | 220,000 tested, 0.38% active | bead-based flow cytometry RGS16-Galphao binding, fluorescence; actives lie on both sides | AID 1441;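 active = below 25% or above 175%, edge rows of some plates excepted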;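 note: Galphao activated by GDP with aluminum fluoride before binding; 100% = wells without compound and 0% = beads without RGS; some results beyond the cut were filed as inactive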
Target sequence (O15492 whole entry, looked up): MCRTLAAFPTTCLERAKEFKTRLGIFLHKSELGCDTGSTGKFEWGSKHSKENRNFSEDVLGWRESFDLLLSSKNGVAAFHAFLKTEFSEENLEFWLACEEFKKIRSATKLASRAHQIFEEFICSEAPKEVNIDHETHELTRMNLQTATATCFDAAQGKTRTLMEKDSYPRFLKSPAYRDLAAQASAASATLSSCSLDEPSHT
Target sequence (P09471 whole entry, looked up): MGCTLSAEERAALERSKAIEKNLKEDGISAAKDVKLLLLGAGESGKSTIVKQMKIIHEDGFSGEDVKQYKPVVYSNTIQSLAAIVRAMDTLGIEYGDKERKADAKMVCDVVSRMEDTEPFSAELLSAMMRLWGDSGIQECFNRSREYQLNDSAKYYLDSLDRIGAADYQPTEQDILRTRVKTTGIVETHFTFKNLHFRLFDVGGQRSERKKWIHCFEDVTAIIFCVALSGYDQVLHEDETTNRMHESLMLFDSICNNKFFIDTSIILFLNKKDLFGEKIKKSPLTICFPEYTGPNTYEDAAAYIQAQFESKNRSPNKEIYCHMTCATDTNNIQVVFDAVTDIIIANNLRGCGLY
INS promoter inh cell count: second read-out of INS promoter inh, no call of its own (marks repeat the call); normalized cell count, %; measured here: cell count, toxicity; reference of the scale not given here;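 cells exposed to compound for 48 h; stained nuclei by imaging scaled within each plate; lower means fewer cells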
HSV replic up primary fold: also measured in HSV replic up; calls as there; fold increase; compound at 10 µM; measured here: primary screen fold increase 10 uM; tested in PC3 cells;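 GFP signal in the first replicate; 1 = infected wells without compound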
The depositor's hits bear a star; i = inactive; . = not tested or not shown.

SMILES	RGS16-Gao HTS	HSV replic up	GALR2 ag	HSV replic up primary fold	PKD1 kinase inh	INS promoter inh	INS promoter inh cell count
CCN(CC)c1ncnc2c1[nH]c1ccccc12	107	i	-3.1	0.93	0	57	124
COc1ccc(/C=C/C(=O)NCc2c(C)nn(C)c2C)cc1COc1ccc(Br)cc1	95	i	0.7	0.82	-5	-56	76
CC(=O)NC(CCS(C)(=O)=O)C(=O)Nc1nc(C)cs1 (stereo unspecified)	.	i	-2.5	0.97	-5	i	46
O=C(O)c1ccccc1C(=O)c1ccc(Br)s1	100	i	.	1.2	3	-2	74
O=C(Nc1ccc(N2C(=O)C3C4C=CC(C4)C3C2=O)cc1)Nc1cccnc1 (stereo unspecified)	97	i	-0.8	0.94	-5	53	94
O=C(CSc1n[nH]c(=O)n1C1CC1)c1ccc(F)cc1	100	i	.	1.1	.	.	.
CCOc1cc(CNCc2cccs2)ccc1OCC(=O)NC(C)(C)C	112	i	-1.3	0.92	-14	.	.
O=C(COC(=O)c1ccc(F)cc1)Nc1cc(S(=O)(=O)N2CCOCC2)ccc1N1CCCC1	99	i	.	0.85	0	.	.
CC1(CCc2ccccc2)NC(=S)N(c2ccc(Cl)cc2)N1 (stereo unspecified)	109	.	-0.1	.	9	.	.
O=C(O)c1ccccc1COc1ccccc1Cl	100	i	-0.5	0.91	-9	-17	79
CCC1SC2=NC(C)=C(C(=O)OC)C(c3ccc(C(=O)OC)cc3)N2C1=O (stereo unspecified)	115	i	-2.8	0.98	0	.	.
O=C(CN1C(=O)NC(Cc2c[nH]c3ccccc23)C1=O)NC1CC1 (stereo unspecified)	100	i	.	0.84	.	.	.
COc1cc(CNCCC2CCOC(C)(C)C2)ccc1O (stereo unspecified)	99	i	-0.5	0.98	7	.	.
Cc1cccc(/C(N)=N/OC(=O)c2ccc3c(c2)OCO3)c1	97	i	-0.1	0.86	-3	-43	104
CCCNC(=O)C1CCN(S(=O)(=O)c2c(C)noc2/C=C\c2ccc(OC)cc2)CC1	101	i	-1.1	0.93	-5	.	.
COc1ccc2nc(NC(=O)CC3Oc4ccccc4NC3=O)sc2c1 (stereo unspecified)	86	i	.	0.84	.	.	.
O=C(O)CSc1nnc(CNc2ccc(F)cc2)n1-c1ccccc1	97	i	.	1.1	.	.	.
c1ccc(CN2OCC3Cn4c(nc5ccccc54)C32)cc1 (stereo unspecified)	112	i	.	0.72	.	.	.
CCn1ncc(/C=N\NC(=O)COc2cc(C)cc(C)c2)c1C	114	i	-0.5	0.7	-5	6	126
O=S(=O)(N/N=C\c1c(F)cccc1Cl)c1ccc(Cl)cc1	101	i	-2.5	0.89	4	-7	126

Brought forward from above: 2 entries, followed by the next part.
SMILES	RGS16-Gao HTS	HSV replic up	GALR2 ag	HSV replic up primary fold	PKD1 kinase inh	INS promoter inh	INS promoter inh cell count
CCn1ncc(/C=N\NC(=O)COc2cc(C)cc(C)c2)c1C	114	i	-0.5	0.7	-5	6	126
O=S(=O)(N/N=C\c1c(F)cccc1Cl)c1ccc(Cl)cc1	101	i	-2.5	0.89	4	-7	126
CC1(C)Oc2nc3ccccc3n2/C1=C\C#N	109	i	-1.2	0.83	-2	-37	93
Cc1cccc(CCNC(=O)CCCOc2cc(=O)n(C)c3ccccc23)c1	95	i	.	0.96	-8	-7	82
Cc1ccc(/C=C(\C#N)c2nn(-c3ccccc3)c(N)c2C#N)cc1	108	i	1.6	0.84	7	11	139
Fc1cc(F)c(C2SCCN2C(=S)Nc2cccc(C(F)(F)F)c2)c(F)c1 (stereo unspecified)	99	i	.	1.1	.	.	.
CCC1CCCCN1CCCNC(=O)c1ccc2c(=O)n(Cc3ccc(OC)cc3)c(=O)[nH]c2c1 (stereo unspecified)	104	i	-2.0	0.84	2	-9	112
O=C(NC(=S)NNC(=O)c1ccccc1F)c1cccnc1	104	i	.	1.2	.	.	.
N/C(=N\OC(=O)c1ccco1)c1cccnc1	128	i	.	1.1	-3	.	.
COc1ccc(/C=N/NC(=O)C2c3ccccc3-c3ccccc32)cc1	94	i	2.5	0.81	-11	-25	84
O=C(CCN1CCc2ccccc2C1)Nc1ccc(F)c(F)c1	103	i	.	1	.	.	.
CC(=O)Nc1ccc(NC(C)=O)c(NC2OCC(O)C(O)C2O)c1 (stereo unspecified)	106	i	.	0.95	.	.	.
COc1ccccc1CNC(=O)C1CCCN(S(C)(=O)=O)C1 (stereo unspecified)	102	i	1.2	0.96	-4	7	54
O=C(COC(=O)c1ccccn1)NCc1ccccc1Cl	112	i	-2.0	1.1	-3	23	28
CCCS(=O)(=O)c1c(S(=O)(=O)CCC)c2c(N)cccn2c1C(=O)c1ccc(F)cc1	101	i	-2.8	1.1	16	.	.
Cc1noc(C)c1S(=O)(=O)N1CCC(C(=O)N2CCN(C(=O)c3ccco3)CC2)CC1	101	i	-1.5	1	-1	-28	124
CCN(CC)S(=O)(=O)c1ccc(N2CCN(S(=O)(=O)c3ccc4c(c3)OCCO4)CC2)nc1	103	i	-0.1	0.93	-1	-45	166
Cc1c(NC(=S)NC(=O)CCc2ccccc2)c(=O)n(-c2ccccc2)n1C	99	i	.	1	-6	.	.
O=C(CSc1nnc(-c2ccncc2)o1)NCc1ccccc1Cl	97	i	0.7	1	6	13	167
COc1cc(C)nc(-c2csc(C)n2)n1	99	i	.	1	.	.	.
Nc1ccccc1OCP(=O)(c1ccccc1)c1ccccc1	103	i	-1.1	0.92	3	0	120
CC(=O)Nc1ccc(S(=O)(=O)N2C3CCCC2CC(NC(=O)C2CCCCC2)C3)cc1 (stereo unspecified)	66	i	-1.0	0.86	-2	.	.

(continued)
SMILES	RGS16-Gao HTS	HSV replic up	GALR2 ag	HSV replic up primary fold	PKD1 kinase inh	INS promoter inh	INS promoter inh cell count
Nc1c(Br)cc(Br)c(N2CCCC2=O)c1Br	87	i	-1.4	0.95	-6	-41	116
CCCn1c(SCC(=O)NCc2ccc(Cl)cc2)n[nH]c1=O	99	i	.	1.1	-6	.	.
CC(=O)NCCCc1nc2ccccc2n1Cc1ccccc1C	94	i	0.0	0.84	5	14	91
CC(=O)Nc1ccc(Oc2ccccc2)cc1	101	i	.	1	.	.	.
CCn1c2c(c(=N)c3c1CCC3)CCCC2	96	i	.	1	.	.	.
O=C(CCN1C(=O)C2C3C=CC(C4CC34)C2C1=O)Oc1ccccc1 (stereo unspecified)	99	i	.	0.93	-7	.	.
COc1cc(CC(NC(C)=O)C(=O)NC2CCN(c3c(Cc4ccccc4)c(C)nc4ncnn34)CC2)cc(OC)c1 (stereo unspecified)	107	i	-1.1	1.1	0	17	108
O=C(NC1CCCCC1)C(c1cccs1)N(C(=O)Cc1c[nH]c2ccccc12)c1ccc(F)cc1 (stereo unspecified)	105	i	-2.4	0.68	8	.	.
c1ccc(Oc2nc(-c3cccnc3)nc3ccccc23)cc1	101	i	.	0.87	.	.	.
COc1ccc(/C=N/c2sc3c(c2C#N)CCN(Cc2ccccc2)C3)c(O)c1	107	i	-1.6	1.3	-6	-8	126
O=C(Cc1ccc([N+](=O)[O-])cc1)Nc1cc(C(F)(F)F)cc(C(F)(F)F)c1	100	i	.	0.99	.	.	.
COc1cc(-c2nnc(SCC#CCO)o2)cc(OC)c1OC	101	i	-2.9	1	-7	.	.
O=C(N/N=C1\CC2CC=CC12)c1ccc(COc2ccccc2)cc1 (stereo unspecified)	104	i	-1.1	0.97	2	40	137
C1CCC(C23CC4CC(CC(C4)C2)C3)NC1 (stereo unspecified)	106	i	-0.2	0.97	9	23	97
Cn1c(=O)c2c(SCC(=O)N3CCOCC3)nc(CC(C)(C)C)nc2n(C)c1=O	99	i	-1.8	0.91	-3	.	.
Cc1ccc(C(=O)NC2CCCCNC2=O)cc1C (stereo unspecified)	93	i	.	0.93	.	.	.
Cc1cc(=O)n2c(c1C#N)SC1CCCCC12O (stereo unspecified)	244	i	-1.6	1	-3	64	67
Cc1ccc(C(C(=O)NC2CCCCC2)N(C(=O)c2csnn2)C2CC2)o1 (stereo unspecified)	102	i	-1.5	0.88	2	.	.
Cc1ccc(C)c(Nc2nc3c(S(=O)(=O)c4ccccc4)nnn3c3ccccc23)c1	104	i	0.4	0.85	-6	-16	106
CN(C)NC(=S)NC1CCS(=O)(=O)C1 (stereo unspecified)	100	i	.	0.97	.	.	.

Part of the list above, with values under each structure:
Every second line gives: RGS16-Gao HTS, HSV replic up, GALR2 ag, HSV replic up primary fold, PKD1 kinase inh, INS promoter inh, INS promoter inh cell count
O=C(N/N=C1\CC2CC=CC12)c1ccc(COc2ccccc2)cc1 (stereo unspecified)
→ 104, i, -1.1, 0.97, 2, 40, 137
C1CCC(C23CC4CC(CC(C4)C2)C3)NC1 (stereo unspecified)
→ 106, i, -0.2, 0.97, 9, 23, 97

Further records:
SMILES	RGS16-Gao HTS	HSV replic up	GALR2 ag	HSV replic up primary fold	PKD1 kinase inh	INS promoter inh	INS promoter inh cell count
N#C/C(=C/N1CCOCC1)c1ccccc1	84	i	-2.3	0.84	4	18	111
COCCn1nnnc1C(c1ccc2ncccc2c1)N1CCN(c2ccccc2F)CC1 (stereo unspecified)	101	.	-2.7	.	-10	.	.
Cc1cc(C)n(CCC(=O)N/N=C/c2cccc([N+](=O)[O-])c2)n1	110	i	.	0.92	.	.	.
CCOC(=O)c1c(C)cccc1OCC(N)=O	102	i	-1.1	0.91	-14	25	76
O=C(C1CCCO1)N1CCN(C(=S)NC2CC2)CC1 (stereo unspecified)	98	i	.	1.1	-5	.	.
CN(C)CCNC(=O)c1scc2c1CCCC2	95	i	.	0.98	.	.	.
COc1ccc(-c2noc(Cc3ccccc3OC)n2)cc1	99	i	-0.4	0.96	5	55	119
COc1cc(/C=N/N=C(\N)c2nonc2N)ccc1O	102	i	.	0.97	-3	-6	138
CCOc1ccc(-n2c(SCC(=O)Nc3ccc(OC)cc3OC)nc3c(c2=O)SCC3)cc1	98	i	-1.5	1	-5	-3	92
O=C(c1ccccc1)N1CCn2c(nc3ccccc32)C1	104	i	-1.4	0.75	-8	0	71
COc1ccc(S(=O)(=O)N2N=C(C)Oc3ccccc3C2=O)cc1	103	i	0.0	0.61	-6	-26	12
CCCSc1nc(C)cc(C)c1S(C)(=O)=O	102	i	.	0.97	-3	-11	89
CCCn1c(SCC(=O)Nc2ccccc2C(=O)OC)nc2c1c(=O)n(C)c(=O)n2C	100	i	-1.4	0.94	3	36	85
Cn1c(CNc2nc(-c3ccccc3)cs2)nnc1SCC(=O)N1CCc2ccccc21	47	i	-2.4	0.82	-1	0	72
Cc1ccc(-c2nnn(CC(=O)N(Cc3ccco3)C(C(=O)NC(C)(C)C)c3cccs3)n2)o1 (stereo unspecified)	100	i	1.8	1.1	7	-5	156
O=C(COc1ccccc1-c1ccccc1)Nc1ccc(S(=O)(=O)NCc2ccco2)cc1	80	i	-3.1	1.1	8	-59	109
CCOC(=O)Nc1cc(C)c(Cl)cc1OC	100	i	-4.0	1.1	-4	.	.
CSc1ccc(CN(C)CC(=O)NC(C)c2ccccc2)cc1 (stereo unspecified)	120	i	.	0.96	-3	-7	41
O=C(COc1cccc2ccccc12)Nc1cc(S(=O)(=O)N2CCOCC2)ccc1N1CCOCC1	92	i	.	1	4	.	.
CCOCCCn1c(=NC(=O)c2cccs2)c(C#N)cc2c(=O)n3ccccc3nc21	101	i	.	1	.	.	.
Cc1csc(NC(=O)C2CCCCN2S(=O)(=O)c2ccccc2)n1 (stereo unspecified)	100	i	.	1.1	3	56	112

High-throughput results deposited in PubChem by several laboratories.
